Biofilm kill mix = clotrimazole potentiators killing C. albicans biofilm, primary screen, 4-compound mixtures. C. albicans biofilm persisters + clotrimazole, fluorescence viability; primary screen in compound mixtures of four per well. inhibition, % at 7.6 µM. 0.02% of 120,000 active. AID 1242, 2008;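 active = inhibition above 30.3% in the primary screen of four-compound pools, then above 30% when the compound was retested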;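 also: compounds exposed to preformed 24 h biofilms for 48 h; the number belongs to the whole pool; some results filed as inactive read as strong as hits; inactives centre near 12; 0% = biofilm with clotrimazole alone and 100% = kill control; retested singly at about 60 µM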
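Incubation: 24 h biofilm formation, then 48 h compound exposure, 37 °C | Material: C. albicans biofilms | Buffer or medium: RPMI/MOPS medium, pH 7.0 | Measured by: 2-h Alamar Blue fluorescence, 535/590 nm excitation/emission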
An asterisk follows results filed as active. Some of the compounds tested; the hit share may differ from the screen's.

SMILES	Biofilm kill mix
Cc1ccsc1C1C(C#N)=C(N)N(N(C)C)C2=C1C(=O)CCC2 (stereo unspecified)	6.5
CCOc1ccccc1Nc1nc2ccccc2n1C(C)C	15.6
CCOC(=O)C1(Cc2ccccc2)CCN(Cc2ccon2)CC1	8.5
OC(CNCCc1ccc(C(F)(F)F)cc1)COc1cccc2ccccc12 (stereo unspecified)	8.0
O=C(N/N=C/c1cccc([N+](=O)[O-])c1)c1ccc(COc2ccccc2-c2ccccc2)cc1	20.0
O=C(O)CCCNC(=O)CC1S/C(=N/N=C/c2ccccc2O)NC1=O (stereo unspecified)	17.4
CN(c1ccc(OCC(=O)OCC(=O)NC2CCCC2)cc1)S(=O)(=O)c1ccc2ccccc2c1	29.1
Cc1cc(Br)ccc1NC(=O)CNC(=O)Cn1ncc(Cl)c(Cl)c1=O	-2.0
COc1ccc(CC(=O)NNC(=O)c2ccncc2)cc1	20.0
CC(=O)C1=C(O)C(=O)N(c2cccnc2)C1c1ccc([N+](=O)[O-])cc1 (stereo unspecified)	10.1
O=C(c1ccc2c(c1)OCO2)C1CCCN(Cc2cn[nH]c2-c2cccc(F)c2)C1 (stereo unspecified)	30.6
CC1(C)Cc2ccccc2-c2nc(NCCCO)[nH]c(=O)c21	20.7

Rewritten as labelled records: part of the list above
CN(c1ccc(OCC(=O)OCC(=O)NC2CCCC2)cc1)S(=O)(=O)c1ccc2ccccc2c1
- Biofilm kill mix = 29.1

O=C(c1ccc2c(c1)OCO2)C1CCCN(Cc2cn[nH]c2-c2cccc(F)c2)C1 (stereo unspecified)
- Biofilm kill mix = 30.6

CC(=O)C1=C(O)C(=O)N(c2cccnc2)C1c1ccc([N+](=O)[O-])cc1 (stereo unspecified)
- Biofilm kill mix = 10.1

CCOC(=O)C1(Cc2ccccc2)CCN(Cc2ccon2)CC1
- Biofilm kill mix = 8.5

Next part.
SMILES	Biofilm kill mix
c1cncc(C(c2nnnn2C2CCCCC2)N2CCN3CCCC3C2)c1 (stereo unspecified)	12.2
Cc1ccc(NC(=O)COC(=O)/C=C/c2cccs2)cc1	14.1
O=C(c1cc(COc2ccc(F)cc2F)on1)N1CCCC(c2ccccc2)C1 (stereo unspecified)	22.4
CCN(CC)C(=O)c1ccc(-c2cccs2)s1	22.5
Cc1ccc(S(=O)(=O)N(C)C)cc1NC(=O)COC(=O)Cc1ccc(Br)cc1	5.8
CCOc1ccc(C(=O)NCC(=O)OCc2cc([N+](=O)[O-])cc3c2OCOC3)cc1OCC	11.3
O=C(Nc1ccc2ncccc2c1)Nc1ccc2ncccc2c1	17.8
CCOC(=O)c1nc(C)sc1-c1ccnn1S(=O)(=O)c1ccc(C)cc1	17.7
Cc1ccc(NS(=O)(=O)c2cc(OCC(N)=O)c(C)cc2Cl)cc1	0.3
COc1cc(NC2c3ccccc3C(=O)N2Cc2ccc3c(c2)OCO3)cc(OC)c1 (stereo unspecified)	26.7
N#Cc1ccsc1NC(=O)CN1CCN(c2ccccc2O)CC1	15.1
CC(=O)NS(=O)(=O)c1ccc(NC(=O)CC(C)c2ccccc2)cc1 (stereo unspecified)	21.7
O=C(c1ccc(F)cc1)c1cnc(Nc2ccccc2)s1	-5.3
COc1ccc(-c2[nH]ncc2CN2CCC(C(=O)c3ccc(F)cc3)CC2)cc1	13.6
S=c1nc(Cc2ccc(Cl)cc2)[nH]c2ccccc12	10.9
N#C/C(=C(/O)c1cccc(F)c1)c1nc2ccccc2s1	14.9
CCn1c(SCC(=O)NCc2ccco2)nnc1-c1ccncc1	31.3
O=C(COc1ccc([N+](=O)[O-])cc1)Nn1cnnc1	-6.3
C[C@H](NC(=O)c1nc[nH]c1C(=O)NC1CCN(C(=O)OC(C)(C)C)CC1)C(=O)OCc1ccccc1	9.9
CC1CCN(c2nc(Cl)nc(Nc3ccc([N+](=O)[O-])cc3)n2)CC1	3.5
O=c1n(Cc2ccccc2Cl)nc2n1-c1ccccc1SC2	9.4
O=C(CN1C(=O)NC2(CCCCCC2)C1=O)N1CCC(Cc2ccccc2)CC1	10.5
Cc1cc([N+](=O)[O-])nn1CC(=O)Nc1cnc2ccccc2c1	-0.2
C=CCOn1c(C)c(C(C)=O)c2c3no[n+]([O-])c3ccc21	-5.7
O=C(NCc1ccco1)/C(=C/c1ccco1)NC(=O)c1ccc(Br)o1	17.7
COc1ccc(Cl)cc1C(=O)NNC(=S)NC(=O)/C=C/c1ccco1	13.5
O=C(c1ccc(Cl)cc1)N1C2C=CC(C2)C1(C(F)(F)F)C(F)(F)F (stereo unspecified)	2.2
COc1ccc(C(C)=O)cc1COC(=O)c1cccnc1SC	14.5
COc1ccccc1C1=NC(c2ccc(C)cc2)N=C1C (stereo unspecified)	22.4
CC(C)(C)C(=O)Nc1ncccc1C(O)c1cccc(C(F)(F)F)c1 (stereo unspecified)	8.0
CCNC(=S)N1CCc2cc(OC)c(OC)cc2C1COc1ccccc1OC (stereo unspecified)	10.9
C=CCNC(=O)c1c(CSc2ccccc2)noc1C(=O)NCc1ccccc1	5.9
c1cncc(-c2nc3ccccc3[nH]2)c1	19.3
CCCCN(Cc1cc2ccccc2[nH]c1=O)S(C)(=O)=O	-1.2
CCC1CCC(NC(=O)Nc2cccc(OC)c2)CC1 (stereo unspecified)	29.3
Cn1c(=O)c2c(ncn2CC(=O)OCC(=O)Nc2ccccc2Cl)n(C)c1=O	12.3
CCOC(=O)c1csc(NC(C)=O)n1	17.9
O=C1CC(c2ccccc2)CC(O)=C1C=Nc1ccc(Cl)cc1 (stereo unspecified)	17.3
CCN(CC)C(=O)CN(c1cc(Cl)ccc1OC)S(=O)(=O)c1ccc(C)c([N+](=O)[O-])c1	10.8
COc1ccc(N=Cc2c(O)c3ccccc3n2C(C)=O)cc1	-0.5
Fc1ccc(C2CCCN2Cc2nc(Cc3ccccc3F)no2)cc1 (stereo unspecified)	25.1
COc1ccc2[nH]c3c(Cl)ncnc3c2c1	21.1
COc1ccc(/C=N/Nc2cc(C)nc(N3CCOCC3)n2)c(OC)c1	26.5
Cc1nn(Cc2cccc(C(=O)NCC(C)C)c2)c(C)c1Br	7.2
COC(=O)CNc1nc(Cl)nc(N2CCC(C)CC2)n1	14.4
CCC(C)c1ccc(NC(=S)NCCn2cc(Br)cn2)cc1 (stereo unspecified)	0.3
Cc1cc(C)c(-c2c(O)c3c(n(C)c2=O)CC(C)(C)CC3=O)c(C)c1	11.5
Cc1cccn2c(CNC3CCCc4ccccc43)c(C(=O)N3CCCCC3)nc12 (stereo unspecified)	24.4
Cn1cc(CN2CCCC(CO)(Cc3ccccc3)C2)c2ccccc21 (stereo unspecified)	16.4
CCCCNC(=S)Nc1ccc([N+](=O)[O-])cc1	13.8
CCc1nnc(NC(=O)CSc2nnc(CNC(=O)c3cc(OC)c(OC)c(OC)c3)o2)s1	29.2
Cc1ccsc1/C=C1\Oc2cc(OCC(=O)c3ccccc3)ccc2C1=O	9.9
S=C(Nc1ccccc1)Nc1ccc(Cl)cn1	14.5
COc1ccc(CNC(=O)CNC(=O)c2c(C)nn(C)c2Cl)cc1	13.5
O=C(Cc1cccs1)Nc1cccc([N+](=O)[O-])c1	7.2
CC(C)N(C(=O)CSc1nnnn1-c1ccc2c(c1)OCO2)C(C)C	18.3
CCCC(C)NC(=O)CSc1nnc2ccccn12 (stereo unspecified)	2.3
COc1ccccc1NC(=O)COc1ccc(/C=N/NC(=O)CSCc2cc(C)cc(C)c2)cc1	11.3
CCOC(=O)c1ccc(-c2ccc(/C=N/NC(=O)CN(c3ccccc3Br)S(C)(=O)=O)o2)cc1	10.3
O=C1C2C3C=CC(C3)C2C(=O)N1c1nc2ccccc2s1 (stereo unspecified)	8.4

Entries above with a thiophene ring, fused or not (6):
SMILES	Biofilm kill mix
Cc1ccsc1C1C(C#N)=C(N)N(N(C)C)C2=C1C(=O)CCC2 (stereo unspecified)	6.5
Cc1ccc(NC(=O)COC(=O)/C=C/c2cccs2)cc1	14.1
CCN(CC)C(=O)c1ccc(-c2cccs2)s1	22.5
N#Cc1ccsc1NC(=O)CN1CCN(c2ccccc2O)CC1	15.1
Cc1ccsc1/C=C1\Oc2cc(OCC(=O)c3ccccc3)ccc2C1=O	9.9
O=C(Cc1cccs1)Nc1cccc([N+](=O)[O-])c1	7.2

More structures follow:
SMILES	Biofilm kill mix
COC(=O)C1C(=O)OC(C)(C)C1C(C)C(=O)c1ccc(C)cc1C (stereo unspecified)	11.3
CCN1CCN(CCCCSc2ccccc2)CC1	9.6
O=C(C1=C[C@H](c2ccc(C(F)(F)F)cc2)C[C@H](OCc2ccc(CO)cc2)O1)N1CCN(Cc2ccccc2)CC1	11.2
O=C(C[n+]1cc(-c2ccc(Cl)c(Cl)c2)n2c1CCC2)OCc1ccccc1	16.0
COc1ccc2c(c1OC)C[N+]1([O-])CCc3cc4c(cc3C1C2)OCO4 (stereo unspecified)	8.4
CC(=O)C1=C(O)C(=O)N(c2cccc(C(=O)O)c2)C1c1ccc(F)cc1 (stereo unspecified)	8.5
Fc1ccccc1CSc1ccc(-c2ccco2)nn1	23.2
Cc1nc2sc(C(c3ccccc3)N3CCN(CCO)CC3)c(O)n2n1 (stereo unspecified)	22.3
Cc1ccc(C(C)(C)C)c(OCCN2CCCC2)c1	14.7
COc1ccccc1-c1noc(CSc2nc(N)cc(=O)[nH]2)n1	-3.5
O=C(Nc1ccc2c(c1)OCO2)C1CCN(C(=O)c2ccc([N+](=O)[O-])cc2)CC1	15.8
CC(C)=NOc1nc(N2CCOCC2)nc(N2CCOCC2)n1	13.2
Cc1ccc(OCC(=O)NNC(=O)C(=O)NC(C)(C)C)cc1	19.3
Cc1ccc(S(=O)(=O)NC(C)(C)CN2CCc3ccccc3C2)cc1	14.8
Cc1scc(C(=O)NNC(=S)NCc2ccccc2)c1C	9.4
CCOC(=O)Cc1csc(NC(=O)COc2cc(C)cc(C)c2)n1	13.1
CCCCCC(=O)N/N=C/c1cc(Br)c(O)c(OC)c1	16.4
Cc1cccc2nc(-c3ccco3)c(Nc3ccc4c(c3)OCO4)n12	24.4
Fc1ccc(/C=C\c2nccc3c2[nH]c2ccccc23)cc1	6.0
CNC(=O)NC(=O)Cn1nc2n(c1=O)-c1ccccc1SC2	13.7
CCOCCCn1c(=NC(=O)c2cccs2)c(C#N)cc2c(=O)n3cccc(C)c3nc21	14.4
Cc1ccccc1CSCc1nc2ccccc2[nH]1	18.1
Cc1nn(CCCC(=O)Nc2nccs2)c(C)c1[N+](=O)[O-]	13.0
COc1ccc(OCC(=O)NNC(=O)c2cccc(S(=O)(=O)N(C)C)c2)cc1	15.9
CC(C)(C)c1ccc(/C=N/NC(=O)c2ccccn2)cc1	21.3
O=C(OCc1ccc([N+](=O)[O-])cc1)c1ccccn1	15.0
Cc1c(OCc2ccc(C(=O)O)cc2)ccc2c(-c3ccccc3)cc(=O)oc12	30.5
O=C(Cc1ccc(S(=O)(=O)N2CCCC2)s1)N1CCN(c2ccccc2)CC1	9.9
CCN1CCN(CCOc2ccccc2OCc2ccccc2)CC1	13.7
Cc1ccc(S(=O)(=O)NCc2ccc(C(=O)NCc3cccnc3)cc2)cc1	5.8
COc1ccc([N+](=O)[O-])cc1NC(=O)C(C)Sc1ccc(C)cc1 (stereo unspecified)	6.3
CC[C@H](C)C(C(=O)N1CCN(C(=O)OC(C)(C)C)CC1)n1cc(C(CO)NC(=O)OC(C)(C)C)nn1 (stereo partly specified)	12.2
Cc1ccc(-c2ccccc2)n1-c1cccc(C(=O)O)c1	6.8
CC(C)CNC(=O)CC(=O)N/N=C/c1cccs1	16.4
COCCN(C(=O)CSc1nnc(-c2cccc(C)c2)n1C)c1c(N)n(Cc2ccccc2)c(=O)[nH]c1=O	15.2
COc1ccccc1CNC(=O)C(=O)NCC1OCCN1S(=O)(=O)c1ccc2c(c1)OCCO2 (stereo unspecified)	13.6
O=C(Nn1c(SCc2cccc([N+](=O)[O-])c2)nc2ccccc2c1=O)c1ccccc1	-2.9
CCN1CCN(Cc2ccc(NC(=O)c3ccc(C)c(NC(=O)c4ccno4)c3)cc2C(F)(F)F)CC1	15.3
CCc1ccc(C(=O)NN(C(=O)c2ccc(CC)cc2)C(C)(C)C)cc1	17.4
Cc1ccc(C(=O)N(Cc2nc3ccccc3c(=O)[nH]2)C2CCCC2)cc1	14.9
CC(C)Cc1nnc(NC(=O)CN2C(=O)c3ccccc3C2=O)s1	13.1
O=C1N(c2ccc(Cl)cc2)C(c2ccc(Cl)cc2)N2CCCN12 (stereo unspecified)	7.3
COc1ccc(CNC(=O)CN(c2ccccc2)S(=O)(=O)N(C)C)cc1	11.2
O=C(CCC(=O)N1CCOCC1)c1ccc(F)cc1	4.6
COc1cc(CNC(C)(C)CO)ccc1OCC(=O)NC(C)(C)C	18.6
NC(=O)CC(NC(=O)Cc1ccc(Br)cc1)c1ccc(N2CCN(c3ccc(F)cc3)CC2)c([N+](=O)[O-])c1 (stereo unspecified)	18.3
O=C1[C@@H]2[C@@H]3C[C@@H]([C@H]4ON=C(c5ccc(OCc6ccccc6)cc5)[C@@H]34)[C@@H]2C(=O)N1c1ccc2c(c1)OCO2	4.4
Cc1ccc(C(c2nnnn2Cc2ccccc2)N2CCN(Cc3ccccc3)CC2)cc1 (stereo unspecified)	12.7
CC(=O)Nc1ccc(NC(=O)c2cccc(-c3cc4ccccc4oc3=O)c2)cc1	15.4
Cc1ccc(NC(=O)COC(=O)c2cc(-c3cccs3)nn2-c2ccccc2)cc1[N+](=O)[O-]	4.5
CCC(C)(C(=O)NC1CCCCC1)N(C(=O)CC1NC(=O)NC1=O)c1c(C)n(C)n(-c2ccccc2)c1=O (stereo unspecified)	13.0
O=C(O)CNC(=S)N(Cc1ccccc1F)C1CCCCC1	4.6
Cc1cccn2c(=O)c(C=O)c(N3CCN(c4ccccc4)CC3)nc12	27.9
COCCCNC(=O)/C(C#N)=C/c1ccc(OCC(=O)O)c(OC)c1	23.3
